# Compound activity (PubChem)
# CtBP-E1A blk = blocks the CtBP interaction with E1A; AlphaScreen GST-E1A/His-CtBP binding, 1536-well; active compounds read low; control for the full effect not named in the record; activity change, % (test concentration not listed); actives 0.49% (n = 340,000); AID 651724; in the data active means activity change below about -65%; inconclusive means about -30% to -65%; inactive means above about -30%; also: % is scaled to controls: 0 for no effect and ±100 for the full control effect
#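 AlphaScreen with 125 nM GST-E1A and 125 nM His-CtBP (5X stocks) in Tris pH 8.0, 300 mM NaCl, BSA, Tween 20, TCEP. Compounds preincubated 2 h at 37 deg C, then glutathione donor/nickel acceptor beads added for 1 h at 37 deg C in dark.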
# gsp ag = agonists of gsp mutant (McCune-Albright syndrome); gsp mutant cells, cAMP HTRF, 30 min; control for the full effect not named in the record; Potency, µM (highest dose often 76.9 µM), for inactives: at the top dose activation (cAMP increase), actives largely listed as activators; actives 0.13% (n = 340,000); AID 624287; active = well fitted activation curve with a large enough effect; inconclusive = small, poorly fitted or top-dose-only effect, or another doubt; inactive = no such curve, though single readings can be large or run the other way; cell line not stated here;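 also: phosphodiesterase inhibitor Ro 20-1724 added with compounds to block cAMP breakdown; potency is read from the fitted curve at half-maximal effect; nearly all actives have a fitted effect of over 60% in size; about a fifth of the inactives were tested at one dose only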
#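 Cells stably selected in G418 were plated at 2000/well, grown 16-24 hr, then given compounds in DMSO with the PDE inhibitor […] (300 uM solution added) for 30 min at 37C; cAMP was read by HTRF.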
# D2 agonist = agonists of human D2 dopamine receptor (beta-arrestin) | P14416 | DiscoveRx PathHunter D2 beta-arrestin, luminescence, 90 min; 100% = 57 uM dopamine signal | activation, % (no concentration beside the values) | actives 0.084% (n = 360,000) | AID 624465; in the data active = activation above about 40%; inconclusive = about 15% to 40%; inactive = below about 15%; also: compound concentration not given in the record; the text of the record calls up to 30% inactive
#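 DiscoveRx PathHunter D2 beta-arrestin cells (2,100/well) attached overnight, then compound-stimulated 90 min at 37 C in HBSS/10 mM HEPES/0.1% Tween-20 buffer; beta-galactosidase complementation read by luminescence after 1 h at ambient temperature. Dopamine 57 uM final (EC100) as control.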
# Six1-Eya2 inh = Six1/Eya2 interaction inhibition | AlphaScreen GST-Six1/His-Eya2 binding, biochemical; active compounds read low; control for the full effect not named in the record | activity change, % (concentration not given with the values) | actives 0.56% (n = 360,000); in the data active = activity change below about -65%; inconclusive = about -30% to -65%; inactive = above about -30%; also: % is scaled to controls: 0 for no effect and ±100 for the full control effect
# Target sequence (O00167 whole entry, looked up): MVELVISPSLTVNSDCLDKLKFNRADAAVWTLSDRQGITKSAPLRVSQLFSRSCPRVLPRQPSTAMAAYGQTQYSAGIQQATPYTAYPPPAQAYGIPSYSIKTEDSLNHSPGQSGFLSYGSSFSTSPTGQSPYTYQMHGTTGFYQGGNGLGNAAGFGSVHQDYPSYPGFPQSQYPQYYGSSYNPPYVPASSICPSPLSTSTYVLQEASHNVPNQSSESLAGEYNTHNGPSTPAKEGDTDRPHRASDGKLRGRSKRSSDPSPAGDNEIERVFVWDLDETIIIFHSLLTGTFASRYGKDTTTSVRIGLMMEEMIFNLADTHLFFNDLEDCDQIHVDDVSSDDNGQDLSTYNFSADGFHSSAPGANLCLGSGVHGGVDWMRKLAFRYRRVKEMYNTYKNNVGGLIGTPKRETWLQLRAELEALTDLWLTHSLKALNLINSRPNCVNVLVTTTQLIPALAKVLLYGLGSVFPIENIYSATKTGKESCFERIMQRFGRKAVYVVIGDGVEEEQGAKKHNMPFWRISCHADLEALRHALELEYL
# Target sequence (Q15475 whole entry, looked up): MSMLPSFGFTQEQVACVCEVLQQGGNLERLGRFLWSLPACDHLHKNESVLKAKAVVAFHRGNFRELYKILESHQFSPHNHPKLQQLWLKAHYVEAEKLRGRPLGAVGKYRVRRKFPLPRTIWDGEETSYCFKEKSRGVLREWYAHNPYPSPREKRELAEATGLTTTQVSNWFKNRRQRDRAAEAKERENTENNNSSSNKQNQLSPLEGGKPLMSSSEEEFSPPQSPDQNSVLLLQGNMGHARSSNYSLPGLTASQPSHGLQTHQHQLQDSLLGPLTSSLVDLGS
#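 Compounds are tested against tagged Six1 and Eya2 proteins bridged by glutathione donor and nickel acceptor beads; after a one-hour incubation at 37 °C without light, AlphaScreen emission is recorded.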
# gsp antag = antagonists of gsp mutant (McCune-Albright syndrome) | gsp-mutant cells, cAMP HTRF, 30 min; control for the full effect not named in the record | Potency, µM (series often up to 76.9 µM), for inactives: at the top dose activity change, negative = inhibition, most hits filed as inhibitors | actives 0.4% (n = 340,000); active = falling curve of any shape with a large fitted effect; inconclusive = falling curve, mostly with a smaller effect; inactive = flat or rising curve; cell line not stated here;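 also: intracellular cAMP measured with PDE inhibitor Ro 20-1724 present during compound exposure; potency is read from the fitted curve at half-maximal effect; % is scaled to controls: 0 for no effect and ±100 for the full control effect; nearly all actives have a fitted effect of over 65% in size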
#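 G418-selected cells were plated in DMEM/10% FBS for 16-24 h at 37C, then treated with compounds plus the PDE inhibitor […] (300 uM solution added) for 30 min at 37C. Intracellular cAMP was measured by HTRF after 30 min lysis at room temperature.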
# D2 PAM = potentiates the human D2 dopamine receptor allosterically; potentiation, % (no concentration beside the values); P14416; AID 624464; actives 0.23% (n = 360,000); DiscoveRx D2 beta-arrestin cells, luminescence, 90 min; 100% = 57 uM dopamine signal; active = potentiation of 50% or more; inconclusive = 30% to 50%; inactive = 30% or less;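 also: compound concentration not given in the record; tested on top of an EC20 dose of dopamine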
#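 D2 cells co-treated with compound plus 50 nM dopamine (EC20) for 90 min at 37 deg C to detect potentiation. Beta-arrestin recruitment was read as enzyme-fragment luminescence after 1 h at ambient temperature. Full response was set by 57 uM dopamine.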
# An asterisk follows results filed as active; ? = inconclusive; / = not tested or not shown; [ ] = another dose, or the depositor's remark.
SMILES,CtBP-E1A blk,gsp ag,D2 agonist,Six1-Eya2 inh,gsp antag,D2 PAM
CC(=O)c1c(C)[nH]c(C(=O)OCC(=O)N2CCc3ccccc32)c1C,-7,-18%,-1.1,-11,7%,-11
O=C(COC(=O)c1ccccn1)Nc1cccc(Cl)c1Cl,-3,-7%,0.6,1,-2%,-3
CCCNc1c(N)c(=O)oc2ccccc12,0,8%,-1.8,-2,-15%,-22
CCCCNC(=O)[C@]1(C)CCC[C@@]2(C)C3CC[C@@]4(C)C[C@]3(CCC21)CC4=O (stereo partly drawn),4,-39%[inhibitor],-2.7,3,-15%,-12
O=C1CSC(c2cccnc2)N1Cc1ccc(Cl)cc1Cl (stereo not drawn),8,-1%,-1.6,-10,-16%,-5
C[C@H]1COC(=O)[C@@H](Cc2ccc(F)cc2)C/C=C\C[C@@H](CC(=O)NCCO)C(=O)N1,3,/,0.5,2,-2%,1
COC(=O)C1=C(CSc2nc3c(cc2C#N)CN(C)CC3)OC(N)=C(C#N)C1c1ccccc1F (stereo not drawn),-29,16%,-2.3,-18,-3%,3
Cc1ccc(NC(=O)CSc2n[nH]c(-c3ccco3)n2)c(C)c1,-7,-10%[15.4 µM],-5.1,1,-58%,14
Cc1cc2c(cc1C)NC(C)CC(=O)N2 (stereo not drawn),4,-10%,-2.2,6,-5%,-8
Cc1c(Cl)cccc1NC(=S)NNc1ncc(C(F)(F)F)cc1Cl,-6,7%,-10,-4,-4%,-30
O=C(Nc1ccccn1)c1cc2ccccc2cc1O,2,?,?,-3,-11%,12
O=C(CCC(=O)OC(C(=O)c1ccccc1)c1ccccc1)Nc1ccccc1 (stereo not drawn),2,28%,-5.0,0,3%,-8
O=C(c1ccnc(Cl)c1)N1CCCC(N2CCN(c3ccccc3F)CC2)C1 (stereo not drawn),-6,-1%,2.7,0,0%,0
O=C(c1cc(-c2ccc(O)cc2)on1)N1CCN(c2ccccc2)CC1,-2,10%[15.4 µM],-5.1,-11,-3%,5
Cc1ccc(S(=O)(=O)c2cc3ccccc3oc2=Nc2ccc3c(c2)OCO3)cc1,-5,22%,-2.6,-12,15%,-14
CCOc1ccc(NS(=O)(=O)c2ccc(C(=O)NCC(c3ccco3)N(C)C)cc2)cc1 (stereo not drawn),-6,-82%[inhibitor],-3.2,-5,8%,5
O=C(Nc1nnc(CCc2ccccc2)s1)c1ccccc1F,6,-1%[15.4 µM],0.1,1,-4%,-2
COc1cc(/C=N/NC(=O)c2ccc3nc[nH]c3c2)cc(OC)c1OC(C)=O,2,?,-1.5,-3,/,2
O=C(C1CC1)N1CCc2sccc2C1c1ccc(Cl)cc1 (stereo not drawn),0,-71%[inhibitor][15.4 µM],-3.0,1,-31%,1
COc1ccc(C2(c3ccc(OC)cc3)NC(=O)N(CC(=O)N(C)C3CCC(C)CC3)C2=O)cc1 (stereo not drawn),-2,7%,-1.1,-6,0%,2
O=C(O)[C@H]1CCCC[C@H]1C(=O)Nc1ccc(S(=O)(=O)N2CCCCC2)cc1,6,-11%[15.4 µM],-1.6,3,-14%,-5
COc1cc(/C=N\n2cnnc2)ccc1OCC(=O)Nc1ccc(C)cc1,5,-2%,-1.5,1,9%,-1
CCCOC(=O)CCCC[C@H]1SC[C@@H](NC(=O)OC)[C@H]1NC(=O)OC,-8,21%,-0.6,6,3%,18
CCOC(=O)c1cnc(SC)nc1Sc1ccc(Cl)cc1Cl,6,0%,0.7,17,-4%,-24
O=C(COC(=O)c1cnc(Cl)c(Cl)c1)NC1CCCC1,-5,?,-3.2,4,/,-13
Cn1ccnc1C(O)c1ccc(OCc2ccccc2)cc1 (stereo not drawn),-5,-53%[inhibitor],-1.2,1,-6%,-9
O=C1NN(c2ccccc2)C(=O)/C1=C/c1coc2ccccc2c1=O,1,8%[15.4 µM],1.1,5,1%,17
O=C(NCC(c1ccco1)N1CCc2ccccc2C1)c1ccc(Cl)c([N+](=O)[O-])c1 (stereo not drawn),-7,-52%[inhibitor],-4.2,-16,-32%,-13
COCCNC(=O)c1ccc(NS(=O)(=O)c2ccc3[nH]c(=O)[nH]c3c2)cc1,2,17%,-1.7,7,2%,13
CCN(CC(=O)Nc1ccccc1OC)C(=O)c1ccccc1Sc1ccccc1C#N,/,-3%,2.4,-2,?,4

# Shown bar-delimited: entries from further up.
SMILES | CtBP-E1A blk | gsp ag | D2 agonist | Six1-Eya2 inh | gsp antag | D2 PAM
COc1cc(/C=N\n2cnnc2)ccc1OCC(=O)Nc1ccc(C)cc1 | 5 | -2% | -1.5 | 1 | 9% | -1
CCCOC(=O)CCCC[C@H]1SC[C@@H](NC(=O)OC)[C@H]1NC(=O)OC | -8 | 21% | -0.6 | 6 | 3% | 18

# Structures above that have fluorine:
SMILES,CtBP-E1A blk,gsp ag,D2 agonist,Six1-Eya2 inh,gsp antag,D2 PAM
C[C@H]1COC(=O)[C@@H](Cc2ccc(F)cc2)C/C=C\C[C@@H](CC(=O)NCCO)C(=O)N1,3,/,0.5,2,-2%,1
COC(=O)C1=C(CSc2nc3c(cc2C#N)CN(C)CC3)OC(N)=C(C#N)C1c1ccccc1F (stereo not drawn),-29,16%,-2.3,-18,-3%,3
Cc1c(Cl)cccc1NC(=S)NNc1ncc(C(F)(F)F)cc1Cl,-6,7%,-10,-4,-4%,-30
O=C(c1ccnc(Cl)c1)N1CCCC(N2CCN(c3ccccc3F)CC2)C1 (stereo not drawn),-6,-1%,2.7,0,0%,0
O=C(Nc1nnc(CCc2ccccc2)s1)c1ccccc1F,6,-1%[15.4 µM],0.1,1,-4%,-2

# (list continues)
SMILES,CtBP-E1A blk,gsp ag,D2 agonist,Six1-Eya2 inh,gsp antag,D2 PAM
COC(=O)c1cn(NC(=O)COc2ccc(Cl)cc2)c(=O)c2ccccc12,-17,-11%[15.4 µM],-0.3,-19,4%,-5
Cc1ccc(CN2CCN(CC(=O)N/N=C/c3c[nH]c4ccccc34)CC2)cc1,-1,0%,-0.3,-18,9%,-32
CCC1(C)Cc2ccccc2-c2c1c(=O)n(Cc1ccccc1)c1nnnn21 (stereo not drawn),-11,26%,-2.1,-1,-5%,24
O=Cc1ccccc1Oc1nc(N2CCOCC2)nc(N2CCOCC2)n1,0,2%,-0.9,0,8%,-5
Nc1nc(CSC(=S)N2CCN(c3ccccc3)CC2)nc(Nc2ccccc2)n1,4,0%,-2.0,-25,4%,-15
CNC(=S)NNC(=O)c1cccc(N(C)C)c1,20,-17%[15.4 µM],-5.6,4,/,-25
Cc1ccc2nc(CSc3nnc(Nc4ccccc4C)s3)cc(=O)n2c1,-15,4%,1.5,-17,-5%,-8
CC(=O)Nc1cc(-c2ccoc2)cn2c(-c3ccccc3)cnc12,-11,/,-4.7,-14,/,-8
O=c1[nH]c(/C(Cl)=C/c2cccc(C(F)(F)F)c2)nc2cc(Cl)ccc12,-4,-2%,3.1,-14,17%,-3
CC(=O)Nc1ccc(-n2c(C)ccc2-c2ccccc2)cc1,-22,24%,2.1,-4,3%,2
Cc1ccc(NC(=O)OCc2cncs2)cc1,16,5%,0.3,2,7%,4
CC(NC(=O)CCSc1nc(-c2ccco2)cc(C(F)(F)F)n1)c1ccccc1 (stereo not drawn),4,-14%,1.8,7,-18%,-1
CCOC(=O)Cc1csc(NC(=O)c2c(O)c3c(n(CC(C)C)c2=O)CCCC3)n1,11,-1%,-0.5,-9,?,9
Cc1ccc(NC(=O)[C@H](C)NC(=O)C2CCN(C(=O)[C@@H](NC(=O)OC(C)(C)C)C(C)C)CC2)cc1,8,15%[15.4 µM],-3.0,-6,13%,-5
Cc1ccc(-n2nc3c(N4CCC(C(=O)NCc5ccc(C)o5)CC4)nnc(C)c3c2C)cc1,-20,-69%,2.6,-10,-21%,-9
CCn1cc(/C=N\NC(=O)c2ccc(F)cc2)cn1,-17,-3%[15.4 µM],-4.7,-5,16%,-4
CCOC(=O)N1CCN(C(=O)Cn2nc(C)n3nc(-c4ccccc4)cc3c2=O)CC1,-13,?,0.7,3,-5%,-4
Clc1cccc(Cc2c(C3CCCCC3)nc3ccc(Br)cn23)c1,0,/,-2.1,-2,/,-6
CCCn1c(Cc2ccccc2)nnc1SCC(=O)N1CCOCC1,6,24%,-0.6,9,13%,-5
OC1CCCN(c2c3c(nc4cc(-c5cccc(Cl)c5)nn24)CCC3)C1 (stereo not drawn),-12,2%,-4.3,-3,-1%,-12
COc1cccc(N2CCN(C(=O)c3cc(-c4ccccc4)nc4c3cnn4C(C)C)CC2)c1,-18,?,-2.8,?,-3%,-5
CC1(C(=O)Nc2cnc3ccccc3c2)CCN1Cc1ccc2ccccc2c1 (stereo not drawn),-8,/,2.7,-8,/,-7
CCOC(=O)C1=C(c2ccccc2)Nc2ncnn2C1c1cc(OC)ccc1OC (stereo not drawn),-3,-58%[inhibitor],1.4,1,-10%,-14
O=C(CN1CCOCC1)Nc1ccc2c(c1)OC(F)(F)O2,2,14%[15.4 µM],-3.2,10,/,-1
COc1cccc(CSc2nnc(-c3ccncc3)n2C)c1,6,-48%[inhibitor],0.1,4,7%,-2
Cc1ccc(F)c(CNC(=O)C2CCC(=O)N(Cc3ccccn3)C2)c1F (stereo not drawn),5,13%,-2.7,2,14%,-8
CCN(CC)CCSc1nnc2c3cc(F)ccc3n(Cc3ccccc3)c2n1,-10,-20%,0.3,-3,-1%,-18
Cc1cc(=O)oc2c(CN3CCN(C)CC3)c(O)c(Cl)cc12,-1,?,1.5,8,1%,3
CC(NCCc1ccc(S(N)(=O)=O)cc1)C(=O)NCCc1ccc(F)cc1 (stereo not drawn),3,2%,0.1,-1,15%,-11
COCCNC(=O)C1(C)CCN(Cc2csc(-c3ccc(Cl)cc3)n2)C1 (stereo not drawn),-2,/,-0.6,3,/,-10
COc1ccc(/C=N/n2c(C)nc3ccccc3c2=O)cc1,0,10%[15.4 µM],-4.0,10,5%,-7
